# High-throughput results deposited in PubChem BioAssay by several laboratories.
# AF4-AF9 inh – blocks AF4 peptide binding to human AF9; P42568; AlphaScreen, biotin-AF4 peptide binding to FLAG-AF9; inhibition, % at 10 µM; actives 0.47% (n = 350,000);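 active means every replicate reaching a set inhibition limit, whatever the replicate mean, cut at about 25% in these data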;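 further: 0% = plate neutral control median and 100% = total signal loss; the record names both 10 and 1 µM as test concentration; the first replicate is given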
# Target sequence (P42568 whole entry, looked up): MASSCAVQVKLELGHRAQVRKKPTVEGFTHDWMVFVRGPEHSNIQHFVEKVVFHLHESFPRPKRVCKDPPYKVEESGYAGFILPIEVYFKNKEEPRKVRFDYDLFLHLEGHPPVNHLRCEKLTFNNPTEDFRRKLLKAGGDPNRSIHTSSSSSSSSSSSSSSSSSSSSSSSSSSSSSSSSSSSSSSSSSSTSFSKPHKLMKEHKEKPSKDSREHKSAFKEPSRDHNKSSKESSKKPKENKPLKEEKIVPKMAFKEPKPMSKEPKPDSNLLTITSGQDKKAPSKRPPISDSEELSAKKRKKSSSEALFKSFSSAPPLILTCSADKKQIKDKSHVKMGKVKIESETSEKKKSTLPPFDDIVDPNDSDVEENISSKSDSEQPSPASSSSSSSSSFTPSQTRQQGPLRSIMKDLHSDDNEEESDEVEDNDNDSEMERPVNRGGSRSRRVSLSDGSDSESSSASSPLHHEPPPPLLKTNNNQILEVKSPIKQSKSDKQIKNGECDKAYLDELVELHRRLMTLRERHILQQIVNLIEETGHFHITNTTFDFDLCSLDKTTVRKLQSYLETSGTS
# E coli growth – inhibitors of Escherichia coli growth; OD600, 23 h; active compounds read low; OD600 absorbance (no concentration beside the values); actives 0.21% (n = 330,000); AID 1053175;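 active means OD600 absorbance below the run mean of sample wells minus 3.6 SD, in any replicate, cut at about 0.56 in these data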;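 further: stock transfer was 300 nL into about 60 µL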
# HNF4A DNA FP – change in binding of human HNF4 alpha to DNA. actives 0.3% (n = 360,000). HNF4a-FITC DNA binding, fluorescence polarization, 1 h. AID 1224865. activity change, % at 10 µM. P41235; in the data active means activity change above about 30%, passing the limit was not always enough;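 further: controls were the assay level and a saturating level of protein; the project sought stronger binding though the title names inhibitors; some compounds called inactive have numbers as strong as hits; positive values seem to mean higher polarization but the record does not say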
# FGF22 binding – FGF22 (human) thermal shift binding. Q9HCT0. recombinant FGF22 thermal shift, SYPRO orange fluorescence; percent of sucrose octasulfate shift, DMSO zero. calls only at 9.99 µM. actives 1.5% (n = 340,000). AID 651658;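 active means melting point raised past a set limit in the mean and every replicate; three in four hits are not shown here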
# Target sequence (Q9HCT0 whole entry, looked up): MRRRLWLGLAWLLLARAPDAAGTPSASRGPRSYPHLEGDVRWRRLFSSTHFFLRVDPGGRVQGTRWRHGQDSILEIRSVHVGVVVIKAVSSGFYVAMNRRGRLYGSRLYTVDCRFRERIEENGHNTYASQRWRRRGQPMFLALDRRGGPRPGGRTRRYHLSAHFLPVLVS
# Vif A3G – inhibitors of Vif binding to APOBEC3G peptide, primary screen, biochemical, TR-FRET, GST-Vif 1-94, biotin-A3G peptide, dose response retest (AID 1117319). TR-FRET GST-Vif / biotin-A3G peptide binding; higher % means a stronger effect; test concentration not given here; strong numbers were not always called active. inhibition, %; hits with a dose series show IC50 in µM. actives 0.57% (n = 260,000);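 active means above the screen mean plus three standard deviations and confirmed in dose response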;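 further: Vif residues 1-94 fused to GST binding biotinylated APOBEC3G peptide 110-148; 0% = full assay without inhibitor and 100% = GST in place of GST-Vif; retest series ran down from 100 µM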
# ALR inh – human ALR oxidase inhibition via reduced H2O2; inhibition, % (no concentration beside the values); purified ALR, DTT oxidation, H2O2 HRP-luminol luminescence; actives 3.8% (n = 290,000); P55789;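 active means mean and each replicate at 75% or more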;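 further: stock transfer was 7.5 nL into about 7.5 µL; 0% = neutral wells and 100% = wells with inactivated enzyme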
# Target sequence (P55789 whole entry, looked up): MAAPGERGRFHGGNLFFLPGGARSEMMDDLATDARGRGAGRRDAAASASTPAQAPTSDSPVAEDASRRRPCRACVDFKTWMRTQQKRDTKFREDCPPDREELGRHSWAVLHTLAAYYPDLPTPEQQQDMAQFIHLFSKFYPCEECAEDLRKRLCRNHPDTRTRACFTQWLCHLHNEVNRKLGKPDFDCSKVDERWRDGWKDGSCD
# Ecoli rRNA inh – selective bacterial rRNA inhibition in E. coli; E. coli WT GFP vs humanized-ribosome RFP mutants, fluorescence, 24 h; active compounds read low; DMSO median 0, no signal -100; GFP signal change (wild-type ribosome), % (concentration not given with the values); actives 1.6% (n = 350,000); AID 720706;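 active means significant combined selectivity score with lowered wild-type GFP, culture density cut under 30%, mutant RFP and density less affected; inactive means any of these conditions unmet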; further: one replicate is shown; some compounds called inactive have numbers as strong as hits
# Ecoli rRNA inh OD600 – second read-out of Ecoli rRNA inh, no call of its own (marks repeat the call); OD600 change, %; measured here: OD600 growth;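 optical density of the mix in the first replicate; 0 = DMSO median and -100 = no signal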
# Ecoli rRNA inh RFP – also measured in Ecoli rRNA inh; calls as there; RFP signal change, %; measured here: RFP humanized mutant strains;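 first replicate; 0 = DMSO median and -100 = no signal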
# Numbers without * were called inactive; i = inactive; . = not tested or not shown; & = joins results of further samples. These rows are one share of the data (hit frequency here may not be typical).
AF4-AF9 inh	E coli growth	HNF4A DNA FP	FGF22 binding	Vif A3G	ALR inh	Ecoli rRNA inh	Ecoli rRNA inh OD600	Ecoli rRNA inh RFP	Structure
3.5	.	.	i	.	.	0.6	-5.0	-0.6	Cc1ccc(S(=O)(=O)Nc2ccc3c(c2)C(=O)N([C@H](C)CO)C[C@H](C)[C@@H](CN(C)Cc2ccc(Cl)c(Cl)c2)O3)cc1
0.8	0.723	-1.7	i	.	1.8	-1.3	0.9	-1.4	Cc1cc(C)c(S(=O)(=O)N2CCCC(C(=O)NCc3cccnc3)C2)c(C)c1 (centres undefined)
.	0.619	2.4	i	-2.6%	-1.9	9.0	4.2	3.5	COc1cccc(CC(=O)NNC(=O)c2c(-c3ccccc3)noc2C)c1
-0.2	.	-0.5	i	4.0%	.	8.0	10.3	-1.8	COc1ccc(C(=O)OCC(=O)N2c3ccccc3CC2C)cc1S(=O)(=O)N1CCOCC1 (centres undefined)
-0.6	0.633	-1.0	i	.	.	-9.2	-4.5	1.7	O=C(O)CC1(CC(=O)Nc2cc(C(F)(F)F)cc(C(F)(F)F)c2)CCCCC1
-0.5	.	.	i	.	.	-1.9	-4.8	0.0	Cc1cc(C(=O)Nc2cccc3c2O[C@H](CN(C)Cc2ccccc2)[C@H](C)CN([C@@H](C)CO)C3=O)n(C)n1
48.7*	0.679	0.7	i	0.0%	98.9*	-13.5	-20.6	-1.9	CCn1c(-c2ccccc2)csc1=Nc1ccc(O)cc1
.	0.672	0.6	.	-0.5%	-4.9	.	.	.	CC(=O)SCCC(=O)Nc1ccccc1
-7.3	0.659	-2.1	i	-12.8%	.	-10.7	-8.6	-2.5	O=C(CN1C(=O)NC2(CCCC2)C1=O)OCCOc1cccc(Br)c1
3.5	.	3.4	i	.	-11.5	-9.5	-26.9	-2.8	O=C1NC[C@@H](c2ccccc2)OC(=O)[C@@H](Cc2ccc(F)cc2)CC/C=C/C[C@@H]1CC(=O)N(CCO)Cc1ccccc1
-0.8	.	.	i	.	.	2.9	8.8	0.8	C[C@@H]1CN([C@@H](C)CO)S(=O)(=O)c2ccc(C3=CCCCC3)cc2O[C@H]1CN(C)S(=O)(=O)c1ccc(F)cc1
-2.1	0.664	-0.9	i	.	-3.4	9.6	11.6	6.1	CCCN1CCC(=O)N(CCO)CC1
.	0.668	-0.7	.	13.2%	16.9	.	.	.	COc1cc(OC)cc(C(=O)NNC(=O)NC2CCCCC2)c1
.	0.77	0.4	.	3.5%&5.5%	1.2	.	.	.	COc1ccc(C(=O)COC(=O)[C@H](C)Nc2ccc(C(F)(F)F)cc2[N+](=O)[O-])c(OC)c1
-1.9	.	.	i	.	.	3.0	0.1	1.2	C[C@@H]1CN([C@H](C)CO)C(=O)c2cc(NC(=O)CCCCCC(=O)Nc3ccccc3N)ccc2O[C@@H]1CN(C)Cc1ccncc1
2.1	0.677	-3.6	i	-2.0%	-8.0	4.7	6.1	-0.7	Nn1c(SCC(=O)Nc2ccc3c(c2)OCCO3)nnc1-c1ccncc1
.	0.698	-2.4	.	14.5%	.	.	.	.	O=C(O)CSC1=NC(=Nc2ccc(Cl)cc2)C2(CCCCC2)N1c1cccc(C(=O)O)c1
.	0.684	-1.5	.	0.6%	-5.1	.	.	.	O=C(COC(=O)c1ccccc1-c1nc2ccccc2s1)NC1CCS(=O)(=O)C1 (centres undefined)
.	0.785	1.1	.	-2.9%	.	.	.	.	Cc1cccc(NC(=O)Cc2ccc(F)cc2)c1
-1.2	0.686	0.8	i	-4.5%	0.5	11.8	15.9	-0.1	COn1c(=O)c(-c2ccccc2)[n+]([O-])c2ccccc21
.	0.73	0.8	.	19.6%	-2.3	.	.	.	CCc1ccccc1NC1=NCC(=O)N1Cc1ccccc1
-10.1	.	.	i	.	.	0.1	-2.2	0.6	CN1C(=O)c2cc(NC(=O)c3ccccc3Cl)ccc2OC[C@@H]2O[C@H](CC(=O)NCC(F)(F)F)CC[C@@H]21
.	0.66	1.7	.	-0.9%	-2.3	.	.	.	Cc1nc(SCc2cccc(Oc3ccccc3)c2)n[nH]1
.	0.638	-1.1	.	-2.9%	30.1	.	.	.	Cc1ccc(C(=O)Nc2ccccc2C(N)=O)o1
.	0.707	-1.0	.	16.6%	17.1	.	.	.	COc1ccc(C2C(C(=O)OCC3CCCO3)=C(C)NC3=C2C(=O)CC(c2ccco2)C3)cc1O (centres undefined)
3.1	.	1.5	i	.	.	-42.0	-62.0	-4.2	COc1ccccc1Cc1c(C(C)(C)C)nc2c3ccccc3ccn12
6.2	.	.	i	.	.	1.0	2.5	4.3	Cc1cccc(-c2ccc([C@@H]3[C@H](CO)N4CCCCN(Cc5ccncc5)C[C@@H]34)cc2)c1
-0.8	.	.	i	.	.	4.7	8.0	1.4	O=C(C[C@@H]1CC[C@H]2[C@@H](COC[C@H](O)CN2CCC(F)(F)F)O1)N1CCC(Cc2ccccc2)CC1
-0.4	0.679	0.5	i	1.5%	-9.2	8.9	-0.4	0.1	Cc1ccccc1OCC(=O)NC(Cc1c[nH]c2ccccc12)C(=O)O (centres undefined)
3.4	.	.	i	.	.	-0.9	-6.0	2.4	COc1cccc(NC(=O)N(C)C[C@@H]2OCc3ccccc3-c3c(n(C)c4ccccc34)C(=O)N([C@@H](C)CO)C[C@H]2C)c1
-0.6	.	-2.9	i	.	-4.0	2.3	-2.9	-6.6	C[C@H]1CN=C(Nc2ccccc2)N1CC1CCCCCC1
0.0	0.701	3.5	i	.	-5.4	5.5	4.6	2.6	CCOc1ccccc1NC(=O)CCNC(=O)c1ccco1
.	0.685	-3.8	.	-2.2%	-3.0	.	.	.	Cc1cc(C)c(NC(=O)CCCN2CCN(C)CC2)c(C)c1
0.1	0.652	2.4	i	.	-6.3	-2.0	2.9	0.0	O=C(COC(=O)c1ccco1)c1ccc(Cl)cc1
3.9	.	.	i	.	.	-1.6	-9.8	1.0	CO[C@@H]1CN(C)C(=O)c2ccc(NC(=O)Nc3ccc(Cl)cc3)cc2OC[C@H](C)N(C(=O)Nc2c(C)noc2C)C[C@H]1C
-0.7	0.652	1.3	i	-7.3%	.	.	.	.	CC(=O)Nc1c(O)nc(SCC(=O)N2CCCCC2)[nH]c1=O
.	0.688	2.2	.	-3.5%	-2.1	.	.	.	COC(=O)c1ccccc1NC(=O)NCc1ccccn1
-22.7	0.709	-3.7	i	16.7%	.	-17.9	-1.0	10.8	Nc1nc2ncc(C(=O)c3cc(Cl)cc(Cl)c3O)cc2s1
0.4	.	.	i	.	.	3.5	10.0	-2.6	COc1ccccc1-c1cnc2c(c1)C(=O)N([C@@H](C)CO)C[C@H](C)[C@H](CN(C)C(=O)CN(C)C)O2
-9.0	0.692	0.4	i	15.3%	-6.3	-26.2	-53.0	-7.4	CCCCCCCCC(=O)NCCOc1ccccc1
-1.2	0.704	3.6	i	1.9%	3.2	4.9	2.7	-1.4	CCN(CC(=O)Nc1c(F)cccc1F)C(=O)c1ccc2c(c1)NC(=O)C(C)S2 (centres undefined)
3.7	0.691	-2.6	i	.	-2.8	1.4	4.5	-2.2	CC(=O)N[C@@H](C)C(=O)N1CCC(n2nccc2NC(=O)CCCc2ccccc2)CC1
7.1	.	.	i	.	.	-2.5	-3.7	2.7	CO[C@@H]1CN(C)C(=O)c2ccc(NC(=O)Nc3ccc(Cl)cc3)cc2OC[C@H](C)N(C)C[C@H]1C
.	0.661	-1.1	.	-16.6%	3.7	.	.	.	Cc1cccc(C(=O)Nc2sc(C(=O)N3CCCC3)c(C)c2C#N)c1
-2.2	0.696	-2.2	i	7.8%	.	1.5	-5.5	-0.4	CCCC(=O)Nc1cc2c(cc1C(C)=O)OCCO2
.	0.669	-1.7	.	4.4%	3.1	.	.	.	Cc1oc(C)c(C(=O)O)c1COc1ccc(C(=O)O)cc1
-1.7	0.647	-2.4	i	-8.4%	13.5	-6.1	1.3	0.8	CCOc1ccccc1C(=O)NC(C(=O)NCc1ccc(F)cc1)C(C)C (centres undefined)
.	0.728	0.9	.	8.9%	-1.5	.	.	.	CCOc1ccc(OCCN2C(=O)NC3(CCCc4ccccc43)C2=O)cc1 (centres undefined)
-3.4	0.655	-3.4	i	4.8%	.	-2.0	-19.2	-2.9	O=S(=O)(c1ccc(C(F)(F)F)cc1)N1CCN(CCOc2ccccc2)CC1
-2.5	0.706	4.8	i	.	-6.1	6.0	16.3	7.1	COc1ccc(-c2nc3ccccc3c(=O)n2CCOc2cccc(C)c2C)cc1

# Among those listed so far, these have two or more sulfur atoms.
AF4-AF9 inh	E coli growth	HNF4A DNA FP	FGF22 binding	Vif A3G	ALR inh	Ecoli rRNA inh	Ecoli rRNA inh OD600	Ecoli rRNA inh RFP	Structure
-0.8	.	.	i	.	.	2.9	8.8	0.8	C[C@@H]1CN([C@@H](C)CO)S(=O)(=O)c2ccc(C3=CCCCC3)cc2O[C@H]1CN(C)S(=O)(=O)c1ccc(F)cc1
.	0.684	-1.5	.	0.6%	-5.1	.	.	.	O=C(COC(=O)c1ccccc1-c1nc2ccccc2s1)NC1CCS(=O)(=O)C1 (centres undefined)

# Next section.
AF4-AF9 inh	E coli growth	HNF4A DNA FP	FGF22 binding	Vif A3G	ALR inh	Ecoli rRNA inh	Ecoli rRNA inh OD600	Ecoli rRNA inh RFP	Structure
.	0.651	-2.2	.	-8.0%	5.4	.	.	.	CC(C)(C)N(NC(=O)Nc1ccc(Cl)cc1)C(=O)c1ccccc1
1.4	0.702	0.2	i	3.0%	.	-1.7	-5.9	0.3	CCOC(=O)c1c(-c2ccccc2)c(C(C)=O)c(=O)n(C)c1C
6.7	0.604	1.0	i	.	1.5	-1.0	-13.6	2.2	COc1ccc(C)cc1NS(=O)(=O)c1ccc2c(c1)N(C)CCO2
-1.4	0.627	7.1	i	.	.	2.1	2.6	-6.3	Cc1cc(C)cc(NC(=O)COC(=O)Cn2cnc3c2c(=O)n(C)c(=O)n3C)c1
0.3	0.701	4.0	i	-1.8%	17.8	10.2	11.3	-1.2	O=C(Cn1ncc2c([nH]c3ccccc32)c1=O)N1CCN(c2ccccc2F)CC1
-0.8	.	.	i	.	.	0.9	-7.8	0.1	CCNC(=O)C[C@H]1CC[C@H]2[C@@H](COc3ccc(NC(=O)Nc4ccc(C)cc4)cc3C(=O)N2C)O1
-2.1	.	.	i	.	.	1.8	1.4	-2.5	C[C@@H](O)C#Cc1cnc2c(c1)C(=O)N([C@@H](C)CO)C[C@H](C)[C@@H](CN(C)CC1CCCC1)O2
2.2	0.709	1.7	i	4.9%	-2.0	10.2	6.9	0.5	Cc1ccc(S(=O)(=O)N2CCN(C(=O)Cn3nc(C)c([N+](=O)[O-])c3C)CC2)cc1
-9.2	.	.	i	.	.	3.6	4.4	-1.1	CO[C@H]1CN(C)C(=O)c2cc(NC(C)=O)ccc2OC[C@@H](C)N(C(=O)c2ccccn2)C[C@H]1C
.	0.727	3.1	.	-0.5%	-39.9	.	.	.	O=C(Nc1cccc2ccccc12)C1CCN(C(=O)NCc2ccccc2)CC1
.	0.636	3.6	.	.	-14.5	.	.	.	Cc1cc(C(=O)NCC(=O)OCC(=O)N2CCCCCC2)ccc1[N+](=O)[O-]
-2.2	.	.	i	.	.	0.2	-0.1	-1.9	C[C@@H]1CCCCO[C@H](CN(C)C(=O)Nc2ccccc2)[C@H](C)CN([C@H](C)CO)C(=O)c2cc(NC(=O)CCC(F)(F)F)ccc2O1
-0.6	0.602	4.1	.	-4.8%	.	-70.3	-80.8	-23.1	O=[N+]([O-])c1cc(-c2ccccc2)cc([N+](=O)[O-])c1O
-1.0	.	.	i	.	.	1.2	-0.1	0.5	C[C@@H]1CN([C@H](C)CO)C(=O)Cc2cc(NC(=O)C3CCCCC3)ccc2O[C@H]1CN(C)Cc1ccc(Cl)c(Cl)c1
.	0.782	-1.9	.	-3.2%	0.1	.	.	.	COC(=O)c1ccccc1N(Cc1ccccc1)S(C)(=O)=O
